VDR inh – Inhibitors of the vitamin D receptor (VDR): qHTS; Potency, µM, without a hit: max response, negative = inhibition, usual class: inhibitors; hit rate 0.93% among 400,000; VDR-SRC2-3 peptide fluorescence polarization, 2 h; active = well fitted inhibition curve with a large enough effect; inconclusive = small, poorly fitted or top-dose-only effect, or another doubt; inactive = no such curve, though single readings can be large or run the other way; note: series mostly up to about 120 µM
Target sequence (P11473 whole entry, looked up): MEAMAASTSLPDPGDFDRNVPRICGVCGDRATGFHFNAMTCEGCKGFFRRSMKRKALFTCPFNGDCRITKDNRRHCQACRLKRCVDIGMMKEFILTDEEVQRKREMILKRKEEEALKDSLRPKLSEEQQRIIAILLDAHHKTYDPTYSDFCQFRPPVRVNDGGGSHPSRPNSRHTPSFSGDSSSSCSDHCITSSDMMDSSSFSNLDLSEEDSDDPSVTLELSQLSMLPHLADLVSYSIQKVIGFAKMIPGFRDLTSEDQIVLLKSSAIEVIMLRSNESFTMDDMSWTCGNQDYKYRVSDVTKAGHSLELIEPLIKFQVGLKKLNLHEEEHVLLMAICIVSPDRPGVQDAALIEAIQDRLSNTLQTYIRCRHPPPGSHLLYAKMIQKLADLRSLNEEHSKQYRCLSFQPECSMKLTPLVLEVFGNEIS
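Signal is fluorescence polarization, reporting how far test compounds block the interaction of VDR with the SRC2-3 coregulator peptide after a 2 h room-temperature incubation.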
Active calls of the source: *; ? = inconclusive; [ ] = dose if it differs, or a comment. % is set by controls: 0 for no effect and ±100 for the full control effect; potency is the fitted concentration of half-maximal effect. Only part of the results is shown; rates above refer to the full screens.

no.	compound	VDR inh
1	O=C1CCCc2c1cc(C(=O)Nc1ccc(Cl)cn1)c(=O)n2-c1ccccc1	13%
2	COc1ccc(CCNC(=O)C2c3ccccc3C(=O)N2CCC(C)C)cc1OC (centres undefined)	0%
3	Cc1ccc(S(=O)(=O)N2CCN(c3nc(-c4ncccn4)nc4ccccc34)CC2)cc1	-4%
4	Cc1ccc(CN2CC(C(=O)N3CCN(S(=O)(=O)c4cc(C)ccc4C)CC3)CC2=O)cc1 (centres undefined)	-22%
5	O=C(OCc1cc(=O)n2nc(C3CCCCC3)sc2n1)c1ccccc1Cl	6%
6	O=C(COC(=O)c1cn(-c2ccccc2)nc1-c1ccc(F)cc1)Nc1ncc(Cl)cc1Cl	8%
7	O=C(COC(=O)CN1C(=O)C2CCCCC2C1=O)Nc1cc(F)ccc1F (centres undefined)	14%
8	CCCC(c1nnnn1CCc1ccccc1)N1CCC(C(N)=O)CC1 (centres undefined)	7%
9	CN(Cc1ccco1)C(=O)c1ccc(OC2CCN(Cc3ccccn3)CC2)cc1	17%
10	COc1ccc(CCNC(=O)NS(=O)(=O)c2ccc(C)cc2)cc1OC	-8%
11	CN(C1CCCCC1)S(=O)(=O)c1ccc(S(=O)(=O)N2CCN(C(=O)c3ccccc3F)CC2)cc1	-4%
12	COc1cccc(CN(C)C(=O)C2CCN(S(=O)(=O)c3ccc(C)cc3)CC2)c1OC	8%
13	CCOC(=O)Cc1nnc(Nc2cccc(O)c2)c2ccccc12	0%
14	CC1CCN(CCCNC(=O)c2cn(C)c3ccc(S(=O)(=O)N(C)C4CCCCC4)cc3c2=O)CC1	-7%
15	Cc1cccc(NC(=O)C2CCCN2S(=O)(=O)c2cccc3nsnc23)c1C (centres undefined)	-11%
16	C=Cc1ccc(CN2C(=O)N(c3cccc(Cl)c3)S(=O)(=O)c3ccccc32)cc1	-1%
17	Cn1c(SCC(=O)N2CCOCC2)nc2cccnc21	-7%
18	O=C(c1ccco1)N1N=C(c2ccc(Cl)cc2)CC1(O)C(F)(F)F (centres undefined)	7%
19	CCOC(=O)C1CCN(C(=O)c2cccs2)CC1	16%
20	CCN(CC(=O)NCc1ccncc1)S(=O)(=O)c1ccc(OC)cc1	-17%
21	O=C(c1cc(COc2ccc(F)cc2Cl)on1)N1CCSCC1	-4%
22	CC(=O)NC(CC(=O)OCC(=O)N1CCN(S(=O)(=O)c2ccc(Cl)cc2)CC1)c1ccccc1 (centres undefined)	-14%
23	Cc1c(Cl)cccc1N1C(=O)CC(N(O)c2ccccc2)C1=O (centres undefined)	-3%
24	CCOc1ccccc1CNC(=O)CCNS(=O)(=O)c1ccc2[nH]c(=O)oc2c1	-10%
25	Cc1ccc(OCC(=O)OCc2cc(=O)n3nc(C4CCCCC4)sc3n2)cc1C	-3%
26	COc1ccc(/C=C/c2nnc(NC(=O)C(C)C)s2)cc1	15%
27	COCCNC(=O)CSc1ccccc1C(=O)NCC1CCCCC1	-21%
28	CCCCCCCCCC(=O)Nn1cnc2ccccc2c1=O	1%
29	Cc1cc(C)n(-c2nc3ccccc3c(=O)n2OCC(=O)Nc2c(C)cccc2C)n1	-9%
30	COc1ccccc1N1CCN(C(=O)Cn2nnc(-c3cccs3)n2)CC1	-1%
31	CC1=NN(C(=O)Cn2nc([N+](=O)[O-])cc2C)C(O)(C(F)(F)F)C1 (centres undefined)	?
32	Cc1c(NC(=O)CSCc2ccccc2)cccc1C(=O)O	-18%
33	COc1cc(NC(=S)N2CCN(c3ccccn3)CC2)c(OC)cc1Cl	?
34	CC(C(=O)NCCc1ccc(F)cc1)N1CCN(Cc2ccccc2)CC1 (centres undefined)	-6%
35	Cc1ccc(-c2nc(NC(=O)CSc3nnnn3-c3ccccc3)ns2)cc1	6%
36	O=C(COC(=O)c1ccc(O)cc1)Nc1ccc(OC(F)F)cc1	-5%
37	Cc1ccccc1N1C(=O)c2cc(S(N)(=O)=O)c(Cl)cc2N[C@H]1C	8%
38	C/C(=C\C(=O)OCC(=O)NCc1ccccc1)C(=O)OCC(=O)NCc1ccccc1	11%
39	Cc1ccc2ncnc(NCCC(=O)O)c2c1	-18%
40	O=S(=O)(Oc1ccccc1/C=N/n1cnnc1)c1ccccc1	-2%
41	COC(=O)c1cc2c(ccn2-c2ccc(F)cc2)n1Cc1ccc(OC)cc1	-2%
42	COc1ccc(N(CC(=O)NCCSc2ccccc2)S(=O)(=O)c2ccccc2)cc1OC	37%[activator]
43	CCc1ccc(NC(=O)/C(C#N)=C/c2ccncc2)cc1	?
44	Cc1nc2oc3c(NCc4ccccc4)ncnc3c2c2c1COC(C)(C)C2	-3%
45	Cc1ccc2c(c1)C(c1ccc(F)cc1)N(C(=O)c1cc3ccccc3oc1=O)CC(=O)N2 (centres undefined)	19%
46	CSc1ccc(/C=C/C(=O)NC(=O)c2ccccc2O)cc1	-24%
47	O=C1c2cccc3cccc(c23)C(=O)C1(O)O	?
48	COc1ccc(Nc2cc3n(c(=O)n2)CCc2cc(OC)c(OC)cc2-3)cc1	-16%
49	COC(=O)CN1C(=O)CC(C)(C)Sc2ccccc21	7%
50	Cc1ccc(-c2nnc(Nc3ccccc3O)c3ccccc23)cc1	-8%
51	CCCN(C(=O)c1cc2c(Cl)nc3ccccc3c2s1)c1cccc(C)c1	-2%
52	COc1ccc(Cc2n[nH]c(=S)n2-c2ccc3c(c2)OCCO3)cc1	1%
53	O=C(O)CC(c1ccccc1)N1C(=O)c2ccccc2C1=O (centres undefined)	-28%
54	O=[N+]([O-])c1ccc(Oc2ccc(C(F)(F)F)cn2)cc1	-18%
55	O=C(CN1C(=O)NC2(CCOc3ccccc32)C1=O)c1ccc[nH]1 (centres undefined)	6%
56	Cc1ccc(NC(=O)C(=O)NCCc2c[nH]c3ccccc23)cc1C	-3%
57	COc1ccc(OCc2nnc(SCC(N)=O)n2N)cc1	-9%
58	Cc1ccc2nc(-c3ccccn3)c(Nc3ccc(F)cc3)n2c1	-7%
59	COc1ccc(NC(=O)C(OC(=O)Cn2cnc3c2c(=O)n(C)c(=O)n3C)c2ccccc2)cc1Cl (centres undefined)	11%
60	CCOc1ccc(N2CC(C(=O)N3CCN(C(=O)c4ccco4)CC3)CC2=O)cc1 (centres undefined)	-5%

Continued:
no.	compound	VDR inh
61	COC(=O)CC1SC(=O)NC1=Nc1cccc(C)c1 (centres undefined)	-3%
62	CCOc1cc2[nH]c(=S)n(CCCN3CCCC3=O)c(=O)c2cc1OCC	4%
63	O=C(O)C(Cc1ccc(O)cc1)N1C(=O)c2ccccc2C1=O (centres undefined)	-3%
64	COc1ccc2oc(=O)c(/C(C)=N/Nc3ccccc3)cc2c1	-5%
65	CCOc1ccccc1NC(=O)NCCC1=CCCCC1	-9%
66	O=C(O)CC(c1cccc([N+](=O)[O-])c1)N1Cc2ccccc2C1=O (centres undefined)	-6%
67	COc1ccc(Br)cc1/C=C/C(=O)Nc1c(C)cccc1C	3%
68	CC(C)(C)n1nnnc1C(c1ccc(C(F)(F)F)cc1)N(Cc1ccc(F)cc1)Cc1ccco1 (centres undefined)	-6%
69	COc1cc(/C=C/C(=O)O)cc(S(=O)(=O)Nc2ccccc2C(=O)NCCc2ccccc2)c1OC	-5%
70	CC1CCCCC1NC(=O)CCCCCn1c(=S)[nH]c2ccccc2c1=O (centres undefined)	13%
71	O=C(Nc1ccn(CCCN2CCN(c3ccccn3)CC2)c(=O)n1)OCc1ccccc1	-6%
72	O=C(C1CCN(S(=O)(=O)c2cccs2)CC1)N1CCN(c2ccccc2O)CC1	-8%
73	COc1nc(=O)n(C2CCCO2)cc1C (centres undefined)	-2%
74	O=C(C1CCN(C2CCN(Cc3ccc4cc(F)ccc4n3)CC2)CC1)N1CCCC1	0%
75	CCSc1nnc(NC(=O)CSc2nnc(CNC(=O)c3ccc(OC)c(OC)c3)o2)s1	-7%
76	COCCC(=O)N1CCC(Oc2ccc(C(=O)N3C[C@@H](C)O[C@@H](C)C3)cc2)CC1	-15%
77	COc1ccc(C2=NC(c3ccncc3)=Nc3ccc(OC)cc3N2)cc1	7%
78	CCN(C(=O)CSc1nc2ccccc2[nH]1)C1CCS(=O)(=O)C1 (centres undefined)	-9%
79	COC(=O)c1cccc(Nc2ncnc3ccc(C)cc23)c1	-4%
80	Cc1nc2ncnn2c(Nc2ccc3c(c2)OCO3)c1Cc1ccccc1	7%
81	CCOC(=O)c1c(N)c(C#N)cn1-c1ccccc1	-4%
82	Cc1ccc2ccc(S(=O)(=O)NCc3ccccn3)cc2c1	23%
83	Cc1cccc(-c2ccc3c(c2)C2CC3CCN2Cc2ccc3c(c2)OCO3)c1 (centres undefined)	9%
84	O=c1c2ccccc2n(Cc2ccccc2F)c(=O)n1-c1cccc(F)c1	2%
85	COCCn1c(-c2ccc(Br)cc2)nc2oc3cc(OC)ccc3c(=O)c2c1=O	-24%
86	CCOC(=O)C(CC)/C(C)=N\NC(=O)c1ccccc1O (centres undefined)	-6%
87	Cc1cccc2nc(CSc3ccccc3N)cn12	-8%
88	O=C(c1ccc(-n2cncn2)c([N+](=O)[O-])c1)N1CCN(S(=O)(=O)c2ccc(Br)cc2)CC1	3%
89	Cc1nc2nc(COc3ccccc3)[nH]n2c(=O)c1Cc1ccccc1	2%
90	COc1ccc(-c2nc(CN(Cc3cnn(C)c3)C(C)C)c(C)o2)c(OC)c1	14%
91	CCOc1cc(/C=N/N=C2/NC(=O)C(CC(=O)O)S2)ccc1OCc1ccc(Cl)cc1 (centres undefined)	-16%
92	NC(=O)c1ccc(NC(=O)CSc2nnc(-c3ccc4c(c3)OCO4)o2)cc1	8%
93	CC(C)(C)c1ccc(C(=O)NCCN2CCOCC2)cc1	-23%
94	Nc1c(C(=O)Nc2ccccc2Cl)nnn1-c1ccc2c(c1)OCCO2	2%
95	CC12CCC(c3c(C(=O)O)nn(-c4ccc(F)cc4)c31)C2(C)C (centres undefined)	10%
96	COc1cc(/C=C/C(=O)OCC(=O)N2c3ccccc3CC2C)cc(OC)c1OC (centres undefined)	-8%
97	COCCSc1nnc(NS(=O)(=O)c2ccccc2)s1	0%
98	Cc1cccc(-n2nnnc2SCC(=O)NCC2(N3CCOCC3)CCCCC2)c1C	22%
99	Cc1ccc(NC(=O)C2CCN(C(=O)c3ccco3)CC2)cc1C	6%
100	Nc1ccc2c(c1)Cc1cc([N+](=O)[O-])ccc1-2	1%
101	COc1cccc(NC(=O)COc2coc(CN3CCc4ccccc4C3)cc2=O)c1	19%
102	CCSc1nc(N)c2c(C)c(C)sc2n1	-8%
103	COCCCNC(=O)CCN1C(=O)COc2ccccc21	10%
104	Cc1cc(C[n+]2cc(Br)ccc2N)c2ncccc2c1	6%
105	Cc1c(C(=O)N(C)C)sc2c1c(=O)n(-c1ccccc1C(F)(F)F)c(=O)n2Cc1cccc(F)c1	0%
106	N=c1sccn1CC(=O)NC(=O)NC1CCCC1	-8%
107	CCOCCCNC(=O)c1c[nH]c2ccc(OCC)cc2c1=O	?
108	Cc1csc(SCC(=O)NC(=O)NC2CCCC2)n1	10%
109	CC1=C(C(=O)NCCc2ccc(C)cc2)C2(CCC(C)CC2)OC1=O (centres undefined)	7%
110	Cc1ccc(-c2nnc(CCC(=O)NCC3C4CC5CC(C4)CC3C5)o2)s1 (centres undefined)	-2%
111	CC[C@H](C)[C@H]1CNC(=S)N1CC1CCN(CCCC2CCCC2)CC1	-20%
112	COc1ccc(CN(C(=O)CSc2nnc(-c3ccccc3F)o2)c2ccc(F)cc2)cc1	0%
113	CC1(C)CC(=O)C2=C(C1)Oc1ncn(CCO)c(=N)c1C2c1ccccc1 (centres undefined)	18%
114	COc1ccc(/C(O)=C2/C(=O)C(=O)N(CCN3CCNCC3)C2c2cccc([N+](=O)[O-])c2)cc1 (centres undefined)	?
115	COc1ccc(N2CCN(CC(=O)Nc3ccc(C)c(C)c3)CC2)cc1	5%
116	C=CCn1c(COc2ccc(Cl)cc2)nnc1SCC(=O)N/N=C/c1ccccc1	-14%
117	O=C(c1ccccc1)c1cccn1CC(=O)N1CCCCCC1	1%
118	CC(C)C(=O)Nc1ccccc1C(=O)N/N=C/c1ccc([N+](=O)[O-])cc1	3%
119	Cc1cccc(C(=O)Nc2cccc(OC(=O)c3cccc(C)c3)c2)c1	5%
120	CN(C(=O)CSc1nnnn1-c1ccccc1)C1CCS(=O)(=O)C1 (centres undefined)	4%

Next compounds follow:
no.	compound	VDR inh
121	Cc1ccc(OC(=S)Nc2ccccc2)c(C)c1	-16%
122	CC(=O)OCc1nc2ccccc2s1	0%
123	CC(NC(=O)COC(=O)c1ccco1)c1ccccc1 (centres undefined)	7%
124	COc1cc(/C=C2/SC(=S)N(Cc3ccccc3)C2=O)ccc1OS(C)(=O)=O	-5%

Grouped by structure: the entries above with two or more sulfur atoms (twelve)
no.	compound	VDR inh
11	CN(C1CCCCC1)S(=O)(=O)c1ccc(S(=O)(=O)N2CCN(C(=O)c3ccccc3F)CC2)cc1	-4%
15	Cc1cccc(NC(=O)C2CCCN2S(=O)(=O)c2cccc3nsnc23)c1C (centres undefined)	-11%
35	Cc1ccc(-c2nc(NC(=O)CSc3nnnn3-c3ccccc3)ns2)cc1	6%
42	COc1ccc(N(CC(=O)NCCSc2ccccc2)S(=O)(=O)c2ccccc2)cc1OC	37%[activator]
72	O=C(C1CCN(S(=O)(=O)c2cccs2)CC1)N1CCN(c2ccccc2O)CC1	-8%
75	CCSc1nnc(NC(=O)CSc2nnc(CNC(=O)c3ccc(OC)c(OC)c3)o2)s1	-7%
78	CCN(C(=O)CSc1nc2ccccc2[nH]1)C1CCS(=O)(=O)C1 (centres undefined)	-9%
97	COCCSc1nnc(NS(=O)(=O)c2ccccc2)s1	0%
102	CCSc1nc(N)c2c(C)c(C)sc2n1	-8%
108	Cc1csc(SCC(=O)NC(=O)NC2CCCC2)n1	10%
120	CN(C(=O)CSc1nnnn1-c1ccccc1)C1CCS(=O)(=O)C1 (centres undefined)	4%
124	COc1cc(/C=C2/SC(=S)N(Cc3ccccc3)C2=O)ccc1OS(C)(=O)=O	-5%
